A1 inhib: inducers of caspase activity in MEF A1-2A-BIM cells, primary screen, A1 inhibitor project, cell-based, CaspaseGlo luminescence; caspase-Glo luminescence, 3 h; percent of clofoctol signal, DMSO as zero; actives 0.51% (n = 21,000); caspase activation, % (concentration not given with the values);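 active = most replicate scores above 10, or exactly half above 10 with mean activity above 10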;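 also: effector caspase 3 and 7 activity cleaving a DEVD luciferin substrate; 50 nL library stock added to about 30 µL; numbers are from one replicate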
BJeLR viability: BJeLR cell viability loss, primary screen, luminescence, CellTiterGlo ATP. BJeLR fibroblasts viability, 48 h; HRASV12, hTERT and SV40 LT/ST transformed. viability loss activity score, % (no concentration beside the values). actives 0.64% (n = 30,000); in the data active = viability loss activity score above about 50%; about a fifth of its hits are not listed in these tables;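 also: higher score means fewer live cells and less ATP luminescence; stock transfer was 50 or 100 nL into about 30 µL; 0% = vehicle wells and 100% = a reference killing control; one replicate is shown; the record names a cut of 85%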
The depositor's hits bear a star.

The opening 4 records (preview)
For CC1=C(CO)C(=O)OC([C@@H](C)[C@H]2CCC3C4CC=C5C[C@@H](O[C@@H]6O[C@H](CO)[C@@H](O)[C@H](O)[C@H]6O)C[C@H](O)[C@]5(C)C4CC[C@@]32C)C1 (stereo partly drawn) the results were A1 inhib -0.4 and BJeLR viability -3.4.
For O=c1n(Cc2ccccc2)c2ccccc2n1Cc1ccccc1 the results were A1 inhib 0.2 and BJeLR viability 6.4.
For Cn1c2c(c3cc(C4CCCCC4)ccc31)C(=O)CCC2 the results were A1 inhib 6.5 and BJeLR viability -0.3.
CCC(C)OC(=O)CSc1ncnc2sc3c(c12)CCC(C)C3 (stereo not drawn) was read as A1 inhib -0.1 and BJeLR viability -6.2.

The whole of this part (from the top)
For CC1=C(CO)C(=O)OC([C@@H](C)[C@H]2CCC3C4CC=C5C[C@@H](O[C@@H]6O[C@H](CO)[C@@H](O)[C@H](O)[C@H]6O)C[C@H](O)[C@]5(C)C4CC[C@@]32C)C1 (stereo partly drawn) the results were A1 inhib -0.4 and BJeLR viability -3.4.
For O=c1n(Cc2ccccc2)c2ccccc2n1Cc1ccccc1 the results were A1 inhib 0.2 and BJeLR viability 6.4.
For Cn1c2c(c3cc(C4CCCCC4)ccc31)C(=O)CCC2 the results were A1 inhib 6.5 and BJeLR viability -0.3.
CCC(C)OC(=O)CSc1ncnc2sc3c(c12)CCC(C)C3 (stereo not drawn) was read as A1 inhib -0.1 and BJeLR viability -6.2.
NC(=S)Nc1ccc(C(F)(F)F)cc1Cl was read as A1 inhib -0.2 and BJeLR viability 0.7.
`C[C@H](CO)N1C[C@H](C)[C@@H](CN(C)Cc2ccc3c(c2)OCO3)Oc2ccc(NC(=O)C3CCCCC3)cc2C1=O` gave A1 inhib -0.8 and BJeLR viability -1.4.
`C[C@H]1CN([C@@H](C)CO)C(=O)c2cc(NC(=O)Nc3ccc(C(F)(F)F)cc3)ccc2O[C@H]1CN(C)Cc1ccc(C(F)(F)F)cc1` gave A1 inhib 1.0 and BJeLR viability -1.8.
For O=C1CSC(c2ccccc2)N1CCc1ccccc1 (stereo not drawn) the results were A1 inhib 0.7 and BJeLR viability -0.1.
For CC(C)n1c2ccccc2c2nnc(SCCCC(=O)c3ccc(F)cc3)nc21 the results were A1 inhib -0.7 and BJeLR viability 6.5.
Screening Cc1ccc(S(=O)(=O)Nc2ccc3c(c2)C(=O)N([C@H](C)CO)C[C@@H](C)[C@@H](CN(C)C(=O)Nc2cccc4ccccc24)O3)cc1 returned A1 inhib 1.9 and BJeLR viability 6.1.
`C[C@@H]1CN([C@@H](C)CO)C(=O)c2cccc(NS(=O)(=O)c3cn(C)cn3)c2O[C@H]1CN(C)Cc1ccc(C(=O)O)cc1` gave BJeLR viability -4.1.
Screening COc1cccc(NC(=O)Cn2c(=O)c3cccn3c3ccccc32)c1 returned A1 inhib -0.3 and BJeLR viability -0.5.
C[C@@H]1CN([C@@H](C)CO)C(=O)c2cc(NC(=O)CCCCCC(=O)Nc3ccccc3N)ccc2O[C@@H]1CN(C)C(=O)Nc1ccc(F)cc1 was read as BJeLR viability -3.8.
For COc1ccc(CN(C)C[C@@H]2Oc3c(NS(C)(=O)=O)cccc3C(=O)N([C@@H](C)CO)C[C@H]2C)cc1 the results were BJeLR viability -3.3.
`CCc1ccc(-n2nc3ccc(NC(=O)c4ccccc4Br)cc3n2)cc1` gave A1 inhib 2.2 and BJeLR viability 8.1.
Screening COc1ccc(CCN(Cc2ccccn2)S(=O)(=O)c2ccc(C(C)(C)C)cc2)cc1OC returned A1 inhib -0.2 and BJeLR viability 2.4.
Screening O=C1NC(=Nc2ccccc2)CS1 returned BJeLR viability 2.9.
`C[C@@H]1CN([C@@H](C)CO)C(=O)c2cccc(NC(=O)C3CC3)c2O[C@@H]1CN(C)C(=O)Nc1cccc2ccccc12` gave BJeLR viability 0.1.
Cc1ccc(S(=O)(=O)N(C)C[C@@H]2Oc3ccc(NS(=O)(=O)c4c(C)noc4C)cc3C(=O)N([C@H](C)CO)C[C@H]2C)cc1 was read as A1 inhib -0.5 and BJeLR viability 3.3.
For Cc1noc(C)c1NC(=O)N(C)C[C@H]1Oc2c(NS(=O)(=O)c3cn(C)cn3)cccc2C(=O)N([C@H](C)CO)C[C@@H]1C the results were BJeLR viability -1.0.
`CC(C)OC(=O)N(C)c1ccc(C(O)(C(F)(F)F)C(F)(F)F)cc1` gave A1 inhib 0.0 and BJeLR viability 5.6.
`Cc1noc(C)c1S(=O)(=O)Nc1ccc2c(c1)C(=O)N([C@H](C)CO)C[C@@H](C)[C@@H](CN(C)C(=O)NC1CCCCC1)O2` gave A1 inhib 0.7 and BJeLR viability 2.4.
For C[C@@H]1CN([C@H](C)CO)C(=O)c2cc(NC(=O)Nc3ccccc3)ccc2O[C@@H]1CN(C)CC1CCCCC1 the results were A1 inhib -0.3 and BJeLR viability -0.3.
`COc1ccc(C2C(C(=O)c3ccc(F)cc3)C(=O)C(=O)N2c2nnc(C)s2)cc1OC` (stereo not drawn) gave A1 inhib 0.2 and BJeLR viability -0.4.
Screening C[C@H](CO)N1C[C@H](C)[C@@H](CN(C)C)Oc2ccc(NS(C)(=O)=O)cc2C1=O returned A1 inhib 0.9 and BJeLR viability -2.5.
Screening COc1ccc(NC(=O)N(C)C[C@@H]2Oc3c(NC(=O)c4ccncc4)cccc3C(=O)N([C@@H](C)CO)C[C@H]2C)cc1 returned BJeLR viability 2.1.
O=C(c1cc2ccccc2oc1=O)N1N=C(c2ccccc2)CC1c1ccccc1 (stereo not drawn) was read as A1 inhib 2.3 and BJeLR viability -0.6.
`O=C(NCc1ccccc1)c1ccc2c(c1)N(Cc1ccccc1)CCS2` gave A1 inhib 1.1 and BJeLR viability -6.2.
Screening C[C@H]1CN([C@@H](C)CO)C(=O)c2cccc(NS(=O)(=O)c3ccccc3)c2O[C@H]1CN(C)S(=O)(=O)c1cn(C)cn1 returned BJeLR viability -5.2.
For C[C@@H]1CN([C@@H](C)CO)C(=O)c2cc(NC(=O)CCC(F)(F)F)ccc2O[C@H]1CN(C)C(=O)Nc1ccc(F)cc1 the results were A1 inhib 0.0 and BJeLR viability -6.8.
Screening COc1ccc(-c2nc(C#N)c(N3CCN(C)CC3)o2)cc1 returned BJeLR viability 2.4.
Screening NCCNS(=O)(=O)c1cccc2cnccc12 returned A1 inhib 0.5 and BJeLR viability 6.7.
Screening N#CC1=C(N)S[C@H](C(=O)c2ccccc2)[C@H]1c1ccc(Br)c(F)c1 returned A1 inhib -0.4 and BJeLR viability 13.
N=Cc1c(C(F)(F)F)[nH]n(-c2nc3ccccc3s2)c1=O was read as BJeLR viability 11.
For CN(C)c1nc(-c2ccc(Cl)cc2)[nH]c(=O)n1 the results were A1 inhib 0.1 and BJeLR viability -0.8.
`O=C(c1cccs1)c1coc2ccc(O)c(CN(CCO)CCO)c12` gave A1 inhib 0.2 and BJeLR viability -3.1.
Cc1cc(C(=O)Nc2cccc3c2O[C@@H](CN(C)C(=O)Nc2cccc4ccccc24)[C@H](C)CN([C@@H](C)CO)C3=O)n(C)n1 was read as BJeLR viability -5.0.
N#CC(C(=Nc1ccccc1)SCc1ccc(Cl)cc1)c1nc2ccccc2[nH]1 (stereo not drawn) was read as A1 inhib -0.4 and BJeLR viability -7.5.
For COc1ccc(CN(C)C[C@H]2Oc3ccc(NS(=O)(=O)c4cn(C)cn4)cc3C(=O)N([C@@H](C)CO)C[C@H]2C)cc1 the results were A1 inhib 1.2 and BJeLR viability -2.6.
Screening Cc1onc(-c2ccccc2)c1NC(=O)N(Cc1ccccc1)C(C)C returned A1 inhib 0.7 and BJeLR viability 1.4.
COc1ccc(CN(C)C[C@H]2Oc3ccc(NC(=O)C4CCCCC4)cc3C(=O)N([C@@H](C)CO)C[C@H]2C)cc1 was read as A1 inhib 0.9 and BJeLR viability -2.5.
C[C@H]1CN([C@@H](C)CO)C(=O)c2cccc(NC(=O)C3CCCCC3)c2O[C@H]1CN(C)S(C)(=O)=O was read as BJeLR viability 3.4.
COc1ccc(S(=O)(=O)Nc2ccc3c(c2)C(=O)N([C@@H](C)CO)C[C@H](C)[C@@H](CN(C)S(=O)(=O)c2ccc(C)cc2)O3)cc1 was read as A1 inhib 0.1 and BJeLR viability -3.8.
`C[C@H]1CN([C@@H](C)CO)C(=O)c2cccc(NS(=O)(=O)c3ccc(Cl)cc3)c2O[C@@H]1CN(C)CC1CC1` gave BJeLR viability -2.7.
Screening C[C@@H]1CN([C@@H](C)CO)C(=O)c2cc(NC(=O)c3ccncc3)ccc2O[C@@H]1CN(C)C(=O)Nc1ccc(C(F)(F)F)cc1 returned A1 inhib -0.4 and BJeLR viability -0.8.
C[C@@H]1CN([C@H](C)CO)C(=O)c2cc(NC(=O)C3CCCCC3)ccc2O[C@@H]1CN(C)Cc1ccc(-c2ccccc2)cc1 was read as A1 inhib 0.2 and BJeLR viability -2.1.
For COc1ccc(NC(=O)N(C)C[C@@H]2Oc3ccc(NC(=O)Nc4cccc5ccccc45)cc3C(=O)N([C@H](C)CO)C[C@@H]2C)cc1 the results were A1 inhib 0.4 and BJeLR viability -1.8.
For O=C(Nc1ccccc1Cl)c1cc2ccccc2oc1=O the results were A1 inhib -5.2 and BJeLR viability -0.6.

Five compounds already listed, arranged by count of non-hydrogen atoms, lowest first:
For O=C(Nc1ccccc1Cl)c1cc2ccccc2oc1=O the results were A1 inhib -5.2 and BJeLR viability -0.6.
Screening Cc1onc(-c2ccccc2)c1NC(=O)N(Cc1ccccc1)C(C)C returned A1 inhib 0.7 and BJeLR viability 1.4.
N#CC(C(=Nc1ccccc1)SCc1ccc(Cl)cc1)c1nc2ccccc2[nH]1 (stereo not drawn) was read as A1 inhib -0.4 and BJeLR viability -7.5.
COc1ccc(S(=O)(=O)Nc2ccc3c(c2)C(=O)N([C@@H](C)CO)C[C@H](C)[C@@H](CN(C)S(=O)(=O)c2ccc(C)cc2)O3)cc1 was read as A1 inhib 0.1 and BJeLR viability -3.8.
Cc1cc(C(=O)Nc2cccc3c2O[C@@H](CN(C)C(=O)Nc2cccc4ccccc24)[C@H](C)CN([C@@H](C)CO)C3=O)n(C)n1 was read as BJeLR viability -5.0.

Later entries.
Screening C[C@@H]1CN([C@@H](C)CO)C(=O)c2cc(NC(=O)Nc3ccc(F)cc3)ccc2O[C@@H]1CN(C)Cc1ccc(Cl)c(Cl)c1 returned A1 inhib -0.4 and BJeLR viability -2.7.
For CC(C)NC(=O)N(C)C[C@@H]1Oc2c(NC(=O)C3CC3)cccc2C(=O)N([C@H](C)CO)C[C@H]1C the results were BJeLR viability 3.1.
Screening Nc1ccc(Oc2ccccc2)cc1 returned A1 inhib 0.9 and BJeLR viability -5.9.
For Cc1ccc(S(=O)(=O)N(C)C[C@H]2Oc3ccc(NC(=O)Cc4cn(C)c5ccccc45)cc3C(=O)N([C@@H](C)CO)C[C@H]2C)cc1 the results were A1 inhib 0.6 and BJeLR viability -6.5.
`Cc1ccc(-c2nnc(Nc3ccccc3)c3ccccc23)cc1S(=O)(=O)NC(C)(C)C` gave A1 inhib -0.1 and BJeLR viability -6.6.
C[C@@H]1CN([C@@H](C)CO)C(=O)c2cccc(NS(=O)(=O)c3cccs3)c2O[C@@H]1CN(C)S(C)(=O)=O was read as BJeLR viability 0.9.
Screening CNC[C@@H]1Oc2ccc(NS(=O)(=O)c3ccc(Cl)cc3)cc2C(=O)N([C@@H](C)CO)C[C@@H]1C returned A1 inhib 0.2 and BJeLR viability -5.3.
Screening CC(C)NC(=O)N(C)C[C@@H]1Oc2ccc(NC(=O)NC3CCCCC3)cc2C(=O)N([C@H](C)CO)C[C@H]1C returned A1 inhib -0.2 and BJeLR viability -2.3.
`CC(=O)N1CCN(c2nc(-c3ccccc3)c3ccccc3n2)CC1` gave A1 inhib 0.6 and BJeLR viability -3.3.
For Cc1ccccc1-n1c(SCCc2ccccc2)nc2ccccc2c1=O the results were A1 inhib 0.6 and BJeLR viability -2.1.
Screening C[C@H]1CN([C@@H](C)CO)C(=O)c2cc(NS(=O)(=O)c3ccc(F)cc3)ccc2O[C@@H]1CN(C)Cc1ccncc1 returned A1 inhib -0.3 and BJeLR viability -1.3.
C[C@H](CO)N1C[C@H](C)[C@H](CN(C)C)Oc2c(NC(=O)C3CC3)cccc2C1=O was read as BJeLR viability 3.5.
Screening COc1ccc(NC(=O)N(C)C[C@H]2Oc3c(NC(=O)c4nc5ccccc5s4)cccc3C(=O)N([C@H](C)CO)C[C@H]2C)cc1 returned BJeLR viability -5.1.
`O=C(CCSc1ccccc1)NC12CC3CC(CC(C3)C1)C2` gave A1 inhib 0.5 and BJeLR viability -6.2.
For C[C@H](CO)N1C[C@H](C)[C@@H](CN(C)Cc2ccc(Cl)c(Cl)c2)Oc2c(NC(=O)NC3CCCCC3)cccc2C1=O the results were BJeLR viability 4.5.
Screening Cc1noc(COc2ccccc2)c1C(=O)Sc1ccc(F)cc1F returned A1 inhib 1.0 and BJeLR viability -2.0.
Screening C[C@@H]1CN([C@H](C)CO)C(=O)c2cccc(NC(=O)c3ccncc3)c2O[C@H]1CN(C)C(=O)NC1CCCCC1 returned BJeLR viability 5.8.
Screening C[C@H]1CN([C@@H](C)CO)C(=O)c2cc(NC(=O)Nc3cccc4ccccc34)ccc2O[C@H]1CN(C)C(=O)Nc1ccc(F)cc1 returned A1 inhib 0.9 and BJeLR viability -3.9.
`CC(C)NC(=O)N(C)C[C@H]1Oc2c(NC(=O)c3ccc(-c4nccs4)cc3)cccc2C(=O)N([C@@H](C)CO)C[C@@H]1C` gave BJeLR viability 1.1.
Screening Cc1ccc(NC(=O)CSC(=N)N)cc1 returned A1 inhib 0.3 and BJeLR viability -0.3.
For C[C@@H]1CN([C@@H](C)CO)C(=O)c2cc(NC(=O)Nc3ccc(F)cc3)ccc2O[C@@H]1CN(C)Cc1ccc(-c2ccccc2)cc1 the results were A1 inhib 0.4 and BJeLR viability 1.9.

Screening results as filed in PubChem BioAssay.

Only part of the results is shown. The share of hits here may be higher or lower than overall.
